Compound activity from PubChem.
RanGTP-Imp inh: inhibitors of RanGTP-importin-beta interaction, primary screen, biochemical, FRET, CFP-Ran, YFP-importin-beta, homogeneous; cell-free CFP-Ran/YFP-importin-beta FRET ratio; inhibition, % (concentration not given with the values); 300,000 tested, 1.1% active;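 active means most replicates above 15%; inconclusive means exactly half above 15%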;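 further: 0% = DMSO wells and 100% = Ran loaded with GDP instead of GTP; wells of about 40 µL received 100 nL stock; the first replicate is given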
FGF22 binding: binders of human FGF22 protein, primary screen, FGF22 synaptogenesis inhibitor project, biophysical, thermal shift, single point | Fibroblast growth factor 22 (Homo sapiens), Q9HCT0 | recombinant FGF22 thermal shift, SYPRO orange fluorescence; percent of sucrose octasulfate shift, DMSO zero | calls only at 9.99 µM | 340,000 tested, 1.5% active;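 active means melting point raised past a set limit in the mean and every replicate; inconclusive means no clear call; three in four hits are not shown here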
Target sequence (Q9HCT0 whole entry, looked up): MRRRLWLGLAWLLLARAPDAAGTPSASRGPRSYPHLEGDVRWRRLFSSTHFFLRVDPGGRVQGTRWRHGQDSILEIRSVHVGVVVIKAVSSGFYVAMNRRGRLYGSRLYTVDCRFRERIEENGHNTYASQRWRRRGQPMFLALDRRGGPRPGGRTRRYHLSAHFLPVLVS
Calb FLC: C. albicans growth inhibition with fluconazole, primary screen, CaCi-2 strain, Alamar Blue fluorescence | C. albicans CaCi-2 (fluconazole-resistant clinical isolate) + fluconazole, 48 h | growth inhibition, % (test concentration not listed) | 300,000 tested, 0.57% active;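 active means most replicates above 75%; inconclusive means exactly half above 75%; inactive means most below 75%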;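 further: all wells also contain fluconazole at 8 µg/ml as a sub-toxic cotreatment; 0% = median of DMSO wells and 100% = median of geldanamycin control wells; wells of about 8 µL received 7.5 nL stock; the first replicate is given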
AF4-AF9 inh: inhibitors of AF4 peptide binding to AF9, primary screen, biochemical, AlphaScreen, biotin-AF4 peptide, FLAG-AF9, single point; Protein AF-9 (Homo sapiens), P42568; inhibition, % at 10 µM; 350,000 tested, 0.47% active;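 active means every replicate reaching a set inhibition limit, whatever the replicate mean, cut at about 25% in these data; inconclusive means mean inhibition reaches that limit but some replicates miss it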;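 further: 0% = plate neutral control median and 100% = total signal loss; the record names both 10 and 1 µM as test concentration; the first replicate is given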
Target sequence (P42568 whole entry, looked up): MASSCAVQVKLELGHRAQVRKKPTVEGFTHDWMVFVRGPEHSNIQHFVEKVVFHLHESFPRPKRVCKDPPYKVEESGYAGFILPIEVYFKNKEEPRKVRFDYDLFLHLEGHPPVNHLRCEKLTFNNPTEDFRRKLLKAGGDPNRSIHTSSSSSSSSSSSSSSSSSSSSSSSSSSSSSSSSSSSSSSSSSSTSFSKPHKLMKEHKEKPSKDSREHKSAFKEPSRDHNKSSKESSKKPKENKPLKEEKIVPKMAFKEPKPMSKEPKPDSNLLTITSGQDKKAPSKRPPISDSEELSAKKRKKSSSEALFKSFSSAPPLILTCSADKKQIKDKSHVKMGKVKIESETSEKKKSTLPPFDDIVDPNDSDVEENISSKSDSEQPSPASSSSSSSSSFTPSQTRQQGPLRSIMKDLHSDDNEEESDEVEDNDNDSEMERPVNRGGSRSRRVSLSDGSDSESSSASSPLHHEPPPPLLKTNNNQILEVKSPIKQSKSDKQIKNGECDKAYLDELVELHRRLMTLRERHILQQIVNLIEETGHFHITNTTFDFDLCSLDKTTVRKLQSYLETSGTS
Beta cell apopt: inhibitors of cytokine-induced beta cell apoptosis, primary screen, luminescence | protection from apoptosis, % (concentration not given with the values) | INS-1E cytokine-induced death, ATP luminescence, 48 h; percent of positive-control rescue, neutral wells zero | 300,000 tested, 0.8% active;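 active means all replicates at 75% or more, or half of them and the mean; inconclusive means half reach 75% but not the mean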;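 further: 0% = cytokine-treated negative control wells and 100% = positive control rescue; higher means more ATP so stronger rescue from cytokine killing; wells of about 40 µL received 100 nL stock; the first replicate is given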
T cruzi repl: inhibitors of intracellular T. cruzi growth, primary screen, luminescence, NIH3T3 host cells | T. cruzi beta-gal in NIH3T3, 90 h | 300,000 tested, 1.4% active | inhibition, % (concentration not given with the values);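 active means mean inhibition across valid replicates above about 55%, limit read from the data; inconclusive means mean below that limit but half or more replicates reach it; inactive means mean below it, under half of replicates reach it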;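 further: signal also drops with host cell toxicity which is not excluded here; 0% = plate median of DMSO wells and 100% = zero luminescence signal; higher percent means less beta-gal luminescence so fewer parasites; stock transfer was 50 nL into about 50 µL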
ALR H2O2 inh: inhibitors of human ALR sulfhydryl oxidase, primary screen, biochemical, H2O2 detection, HRP-luminol luminescence, single point; FAD-linked sulfhydryl oxidase ALR (Homo sapiens), P55789; purified ALR, DTT oxidation; inhibition, % (concentration not given with the values); 290,000 tested, 3.8% active; AID 485317, 2010;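 active means mean and each replicate at 75% or more; inconclusive means only one of the two met; inactive means neither met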;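 further: stock transfer was 7.5 nL into about 7.5 µL; 0% = neutral wells and 100% = wells with inactivated enzyme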
Target sequence (P55789 whole entry, looked up): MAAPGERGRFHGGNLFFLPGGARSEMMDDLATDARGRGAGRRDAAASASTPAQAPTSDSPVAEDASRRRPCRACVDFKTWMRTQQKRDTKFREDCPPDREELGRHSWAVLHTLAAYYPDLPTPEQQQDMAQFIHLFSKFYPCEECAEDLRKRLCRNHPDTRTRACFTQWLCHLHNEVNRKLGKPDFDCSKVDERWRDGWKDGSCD
rRNA inh HTS: reduced GFP signal of wild-type E. coli, primary screen, bacterial rRNA inhibitor project, GFP/RFP fluorescence, OD600, single point; E. coli WT GFP vs humanized-ribosome RFP mutants, 24 h; hits give low values; DMSO median 0, no signal -100; GFP signal change (wild-type ribosome), % (concentration not given with the values); 350,000 tested, 1.6% active; AID 720706, 2013;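 active means significant combined selectivity score with lowered wild-type GFP, culture density cut under 30%, mutant RFP and density less affected; inactive means any of these conditions unmet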; further: one replicate is shown; some compounds called inactive have numbers as strong as hits
rRNA inh HTS OD600: second read-out of rRNA inh HTS, no call of its own (marks repeat the call); OD600 change, %; measured here: OD600 growth;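 optical density of the mix in the first replicate; 0 = DMSO median and -100 = no signal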
rRNA inh HTS RFP: recorded beside rRNA inh HTS, whose call it bears; RFP signal change, %; measured here: RFP humanized mutant strains;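 first replicate; 0 = DMSO median and -100 = no signal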
Active calls of the source: *; i = inactive; ? = inconclusive; / = not tested or not shown.

SMILES	T cruzi repl	ALR H2O2 inh	rRNA inh HTS OD600	Calb FLC	rRNA inh HTS	Beta cell apopt	RanGTP-Imp inh	AF4-AF9 inh	FGF22 binding	rRNA inh HTS RFP
COc1ccc(C)cc1NC(=O)CN(C)S(=O)(=O)c1cccs1	3	-5	/	-2	/	-6	?	/	/	/
COc1cc2ccc(=O)oc2c(O)c1OCC=C(C)C	0	?	-7.9*	?	-21*	-4	9.1	-3.2	/	-1.6*
COc1cc(C(=O)Nc2ccc3c(c2)Cc2cc(NC(=O)c4cc(OC)c(OC)c(OC)c4)ccc2-3)cc(OC)c1OC	7	/	/	-3	/	-9	-2.8	/	/	/
O=C(NCc1cccnc1)c1ccc(NS(=O)(=O)c2ccc(F)cc2)cc1	-6	-3	0	6	4	-7	-1.0	1.8	i	-0.2
CCN(CC)S(=O)(=O)c1cc(NC(=O)c2ccc(Br)s2)ccc1C	13	-8	3	-28	2	3	3.5	-0.7	i	2.1
CC(C)C(=O)NC(=S)Nc1ccc(S(=O)(=O)NC(C)(C)C)cc1	7	5	/	29	/	-3	0.2	/	/	/
CC(C)CC(=O)NC(=S)NCc1ccccc1	1	-1	/	-5	/	-3	-1.3	/	/	/
C[n+]1ccn(CC(=O)c2ccc(Cl)cc2)c1	-19	4	/	-5	/	-6	-6.8	/	/	/
CC1CCN(C(=O)Cn2nnc(-c3ccc(C(C)C)cc3)n2)CC1	-2	7	0	-1	6	-7	?	-4.6	/	1.5
CC(O)CN1CCN(C(=O)CN2C(=O)NC(c3ccccc3)(c3ccccc3)C2=O)CC1 (stereo not drawn)	-7	-17	8	6	9	-3	2.1	0.1	i	3.1
COc1cc(Cl)ccc1OCc1cc(C(=O)NCCCN2CCCC2=O)no1	-15	-2	-5	7	1	-7	3.1	-0.3	i	-0.2
COc1cc(OC)cc(-c2n[nH]c(=S)n2-c2ccc3c(c2)OCCO3)c1	0	1	-3	27	-3	-7	10	0.4	i	-2.0
Cc1cc(Br)ccc1NC(=O)C1CCN(S(=O)(=O)c2cnc[nH]2)CC1	-3	-2	1	1	-1	-5	2.9	-1.9	i	-3.3
COCCN(C(=O)C(F)(F)F)C(C(=O)NC1CCCCC1)c1ccco1 (stereo not drawn)	14	4	/	-15	/	-1	-5.3	/	/	/
Cc1ccc2c(c1)NC(=O)C(CC(=O)Nc1ccc(CN3CCC(C)CC3)cc1)O2 (stereo not drawn)	-9	10	/	8	/	2	-3.3	/	/	/
Cc1ccc(COc2coc(CO)cc2=O)cc1	5	5	/	-5	/	/	2.9	/	/	/
CCOC(=O)Nc1ccc2c(c1)N(C(=O)CCCl)c1ccccc1[S@]2=O	-28	75	-17	6	-14	/	-0.2	-2.5	i	-5.3
CCn1c(C(=O)NC2CCC(C)CC2)cc2sccc21 (stereo not drawn)	5	-10	7	-4	9	-3	-2.7	-5.2	i	-0.2
O=C(Nc1cc2c(ccc3ccccc32)oc1=O)C1CCCCC1	-9	-7	/	-4	/	-13	7.3	-53	i	/
COc1ccc(C(=O)NC2(C(F)(F)F)N=C3SCCN3C2=O)cc1 (stereo not drawn)	-2	-5	9	-12	2	1	/	/	/	-2.0
Cc1ccc(S(=O)(=O)N(C)c2ccc(OC(=O)CN3C(=O)NC4(CCCC4)C3=O)cc2)cc1C	-17	-9	15	-11	12	-10	8.7	-5.6	i	-1.4
CC1CCN(C(=O)CSc2nc3[nH]ncc3c(=O)[nH]2)CC1	-11	-1	30	0	8	-4	-3.3	4.9	i	-2.0
CC(C)(C)c1ccc(C(=O)O)c(C(=O)c2ccccc2)c1	27	3	-1	-1	7	-1	/	-1.0	i	0.3
Cn1c(SCC(=O)N2CCCc3ccccc32)nnc1-c1ccccc1	-10	-4	-5	71	-1	-4	5.7	2.5	i	0.0
CC1CC(C)CN(C(=O)CCC(=O)Nc2nnc(C(C)C)s2)C1 (stereo not drawn)	4	-16	8	-10	-1	-2	5.6	1.1	i	-1.9
O=C(CSc1nnc(-c2ccccc2)o1)Nn1cnnc1	-13	-4	/	-14	/	-5	-0.4	/	/	/
COc1ccc(-n2nc(C(=O)NCC(=O)N(C)Cc3ccccc3)c3ccccc3c2=O)cc1	-3	1	-20	22	-3	3	2.7	-0.8	i	0.3
O=C(O)CC/C(=N\Nc1ccccc1[N+](=O)[O-])c1cccs1	4	98*	/	18	/	-1	0.0	/	/	/
CCOC(=O)/C(C#N)=C\C1=C(N2CCCC2)CC(C)(C)OC1	-12	19	/	10	/	-4	6.8	/	/	/
Cc1[nH]c2ccc(C(=O)OCC(=O)NC3(C#N)CCCCC3)cc2c1C	-14	3	-6	-23	2	1	8.8	-3.9	i	4.5
COc1ccccc1C(=O)Nc1ccc(NC(=O)C2CCCCC2)nc1	13	/	12	4	7	-9	2.4	-5.4	i	2.4
Cc1ccc2[nH]c(-c3cccc(F)c3)cc(=O)c2c1	-1	-2	21	-5	12	11	1.5	-1.6	i	1.0
Cc1ccc(NC(=O)C(C)NC(=O)OCc2ccccc2)cc1C (stereo not drawn)	-8	1	-9	-13	-6	-9	2.9	1.9	i	0.1
Cn1nc(OC(=O)Nc2ccc(Cl)cc2)cc1C(F)(F)F	0	29	/	-2	/	-1	-1.5	/	/	/
COc1cccc(-n2c(CN3CCN(Cc4ccccc4)CC3)nc3ccc([N+](=O)[O-])cc3c2=O)c1	44	1	1	-4	-2	5	-4.1	-0.8	i	-7.8
Cc1cc(C)n(C(C)Sc2ccccc2)n1 (stereo not drawn)	-26	/	5	-5	6	-8	6.7	/	i	-0.5
CCOC(=O)C1NN=C(C(=O)c2ccccc2)C1c1ccccc1 (stereo not drawn)	13	/	-8	9	-15	1	4.1	6.9	i	-13
CC(C)=NNc1nc2c(c(=O)[nH]c(=O)n2C)n1CCc1ccccc1	-21	2	22	4	8	7	-1.1	18	i	9.1
CCCc1ccc(-c2cc(N)n[nH]2)cc1	5	99*	10	-5	4	-19	0.2	/	/	-3.3
O=C1N(CN2CCOCC2)c2ccccc2C12OCC(CCl)O2 (stereo not drawn)	1	0	-4	-6	7	-2	1.4	-8.2	i	0.4
Cc1cnc(NC(=O)c2cncc(Br)c2)s1	7	6	11	-10	2	-3	-0.3	-12	i	-2.0
CNC(=O)c1nc(C)c(C2(C)CC(c3cccc([N+](=O)[O-])c3)=NO2)s1 (stereo not drawn)	5	/	7	4	6	5	-0.4	-0.9	i	-2.6
CS(=O)(=O)N1CCN(S(=O)(=O)c2ccccc2[N+](=O)[O-])CC1	-11	-15	12	10	14	-3	-1.7	-1.4	/	1.5
COc1cc2[nH]c(=O)n(CCCCCC(=O)N3CCN(c4ccccn4)CC3)c(=O)c2cc1OC	-18	-3	0	4	0	-1	4.1	/	/	0.3
CC1=NN(S(=O)(=O)c2ccc(Cl)cc2Cl)C(=O)c2ccccc2O1	-8	4	-42	5	-25	2	-0.7	3.3	i	-13
CCOc1ccc(C(=O)O/N=C(\N)c2ccccn2)cc1OCC	2	1	-14	/	-2	-5	/	-2.3	i	-1.0
O=C1OC(Nc2ccc(F)cc2F)c2ccccc21 (stereo not drawn)	-5	-2	/	-4	/	0	3.7	/	/	/
Cc1cc(OC(=O)c2c(F)cc(F)cc2F)nc(C)n1	-9	11	6	38	8	-2	2.4	1.5	i	-1.0
Cc1ccc(O)c(C(=O)c2cnn(C(=O)COc3ccccc3C#N)c2)c1	4	-5	/	3	/	-4	6.4	/	/	/
O=C(Cn1nnc2ccccc2c1=O)N1CCOCC1	-19	-17	9	-9	5	-6	?	-2.2	i	0.8

(list continues)
SMILES	T cruzi repl	ALR H2O2 inh	rRNA inh HTS OD600	Calb FLC	rRNA inh HTS	Beta cell apopt	RanGTP-Imp inh	AF4-AF9 inh	FGF22 binding	rRNA inh HTS RFP
CCn1nnc(-c2ccccc2NS(=O)(=O)c2ccc(S(=O)(=O)N3CCCCCC3)cc2)n1	5	1	2	18	8	-17	0.3	0.6	i	1.4
CCOCCOC(=O)c1cccc(NC(=O)OCC)c1	4	-1	/	-5	/	-3	-15	/	/	/
COCCSc1ccccc1C(=O)Nc1cc(C)cc(C)c1	-12	-10	-12	-28	-22	0	3.1	-4.7	i	-4.5
CCOC(=O)N1CCN(CC(=O)Nc2nc3ccc(OC)cc3s2)CC1	-4	-41	5	7	7	1	5.7	1.7	i	3.2
CCc1oc2c(C)c(O)ccc2c(=O)c1-c1ccc2ccccc2n1	-9	-12	/	-14	/	1	1.2	/	/	/
Cc1ccc(-n2c(CNc3ccc(F)cc3)nnc2SCC(=O)N2CCOCC2)cc1	6	16	/	26	/	0	5.3	/	/	/
COC(=O)C(NS(=O)(=O)c1cccc(S(=O)(=O)NC(C(=O)OC)c2ccccc2)c1)c1ccccc1 (stereo not drawn)	7	-9	-18	-3	-18	-12	1.8	5.1	i	0.8
COc1ccc(CCNC(=O)CN2C(=O)c3ccccc3C2=O)cc1	1	/	/	2	/	-8	-0.1	/	/	/

These rows are one share of the data; rates above refer to the full screens.
